# High-throughput results deposited in PubChem by several laboratories.
# FGF22 binding: binders of human FGF22 protein, primary screen, FGF22 synaptogenesis inhibitor project, biophysical, thermal shift, single point; recombinant FGF22 thermal shift, SYPRO orange fluorescence; percent of sucrose octasulfate shift, DMSO zero; calls only at 9.99 µM; 340,000 tested, 1.5% active; AID 651658, 2012;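 active means melting point raised past a set limit in the mean and every replicate; three in four hits are not shown here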
# E coli growth: E. coli growth inhibition, primary screen, OD600; OD600 absorbance (concentration not given with the values); 330,000 tested, 0.21% active; Escherichia coli growth, 23 h; hits give low values;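 active means OD600 absorbance below the run mean of sample wells minus 3.6 SD, in any replicate, cut at about 0.56 in these data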;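 further: stock transfer was 300 nL into about 60 µL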
# LANA-H2B inh: blockers of LANA interaction with H2A/H2B – biochemical, FP readout, HTS, primary screen. inhibition, % (concentration not given with the values). 320,000 tested, 0.6% active. cell-free LANA-H2A/H2B peptide, fluorescence polarization. Protein LANA1 (Human herpesvirus 8 type P (isolate GK18)), Q9QR71; in the data active means inhibition mostly above about 10%, no sharp cut-off; inactive means mostly below about 6.7%;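 further: stock transfer was 7.5 nL into about 10 µL; 0% = median of vehicle wells and 100% = median of positive control wells; one replicate is shown; the record names a cut of 25% in any replicate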
# ALR H2O2 inh: inhibitors of human ALR sulfhydryl oxidase, primary screen, biochemical, H2O2 detection, HRP-luminol luminescence, single point; inhibition, % (concentration not given with the values); 290,000 tested, 3.8% active; purified ALR, DTT oxidation; FAD-linked sulfhydryl oxidase ALR (Homo sapiens), P55789;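 active means mean and each replicate at 75% or more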;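 further: stock transfer was 7.5 nL into about 7.5 µL; 0% = neutral wells and 100% = wells with inactivated enzyme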
# Target sequence (P55789 whole entry, looked up): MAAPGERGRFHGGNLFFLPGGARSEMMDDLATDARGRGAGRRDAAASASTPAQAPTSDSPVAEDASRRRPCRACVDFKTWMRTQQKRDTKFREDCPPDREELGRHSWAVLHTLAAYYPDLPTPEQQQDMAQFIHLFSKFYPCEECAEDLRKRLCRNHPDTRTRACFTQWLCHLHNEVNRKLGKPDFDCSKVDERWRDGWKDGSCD
# UCH37 inh: inhibitors of human UCH37 deubiquitinase, primary screen, biochemical, Ub-AMC cleavage, fluorescence. Ubiquitin carboxyl-terminal hydrolase isozyme L5 (Homo sapiens), Q9Y5K5. AID 588478, 2011. inhibition, % (concentration not given with the values). 330,000 tested, 0.33% active. purified proteasome/UCH37;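 active means mean of two replicates above 20%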;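 further: 0% = compound-free wells with enzyme and 100% = wells lacking proteasome; stock transfer was 100 nL into about 20 µL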
# Target sequence (Q9Y5K5 whole entry, looked up): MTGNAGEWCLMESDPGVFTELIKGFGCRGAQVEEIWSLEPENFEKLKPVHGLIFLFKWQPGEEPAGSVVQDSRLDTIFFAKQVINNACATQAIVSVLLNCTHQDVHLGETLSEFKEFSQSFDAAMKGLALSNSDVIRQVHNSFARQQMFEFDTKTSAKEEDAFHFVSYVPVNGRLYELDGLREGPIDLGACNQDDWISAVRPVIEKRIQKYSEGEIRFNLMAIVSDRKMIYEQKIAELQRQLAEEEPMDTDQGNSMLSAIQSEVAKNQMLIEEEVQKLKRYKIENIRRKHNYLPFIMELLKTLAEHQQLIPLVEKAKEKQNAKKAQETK
#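 Signal – fluorescence, ex 355 nm, em 460 nm · System – Proteasome-bound UCH37 · Input – 0.15 nM proteasome as dispensed · Timing – 30 min preincubation with enzyme, 25 min cleavage at room temperature · Read-out basis – percent inhibition of cleavage signal versus uninhibited and no-proteasome wells · Medium – Tris-HCl pH 7.4 with ATP-MgCl2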
# HNF4A DNA FP: change in binding of human HNF4A to DNA, primary screen, biochemical, fluorescence polarization, FITC-DNA; 1 h; activity change, % at 10 µM; 360,000 tested, 0.3% active; AID 1224865, 2016; in the data active means activity change above about 30%, passing the limit was not always enough;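 further: controls were the assay level and a saturating level of protein; the project sought stronger binding though the title names inhibitors; some compounds called inactive have numbers as strong as hits; positive values seem to mean higher polarization but the record does not say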
# Target sequence (P41235 whole entry, looked up): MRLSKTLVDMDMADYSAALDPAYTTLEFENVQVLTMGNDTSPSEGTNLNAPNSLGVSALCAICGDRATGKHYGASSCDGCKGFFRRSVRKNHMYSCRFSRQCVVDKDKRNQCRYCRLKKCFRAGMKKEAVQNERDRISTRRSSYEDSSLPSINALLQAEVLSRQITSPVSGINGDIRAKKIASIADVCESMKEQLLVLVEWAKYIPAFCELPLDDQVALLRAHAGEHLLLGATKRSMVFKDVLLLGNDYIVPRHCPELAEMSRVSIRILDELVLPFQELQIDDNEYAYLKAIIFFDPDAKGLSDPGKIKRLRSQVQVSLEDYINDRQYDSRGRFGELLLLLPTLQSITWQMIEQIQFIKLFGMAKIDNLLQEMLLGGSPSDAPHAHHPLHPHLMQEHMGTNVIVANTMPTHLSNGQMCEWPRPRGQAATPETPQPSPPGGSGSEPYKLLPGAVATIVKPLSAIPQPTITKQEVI
# B2AR ag: beta2AR agonists driving receptor internalization, primary screen, cell-based, FAP fluorogen, flow cytometry; AID 504454, 2011; Am2.2-beta2AR cells; reference of the scale not given here; 340,000 tested, 0.43% active; response, % (no concentration beside the values);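 active means response above a set limit, near 3 SD of response in nonfluorescent compounds, cut at about 42% in these data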;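 further: stock transfer was 100 nL into about 11 µL; a reference agonist was the positive control; negative values mostly stem from fluorescent compounds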
# * marks the source's active call; other numbers are inactive results; i = inactive; / = not tested or not shown; & = joins results of further samples. This is a subset. The share of hits here may be higher or lower than overall.
# The line under a structure holds: FGF22 binding	E coli growth	LANA-H2B inh	ALR H2O2 inh	UCH37 inh	HNF4A DNA FP	B2AR ag
- Cc1cc(C)c(S(=O)(=O)c2ccccc2C)c(OCCO)n1
 : i	0.69	2.9	-0.3	0.9	-1.0	0.6
- Cc1ccc(S(=O)(=O)N2CCN(C(=O)/C=C/c3ccco3)CC2)cc1
 : i	0.64	-0.1	-0.1	3.5	-2.3	-6.6
- COC(CNC(=O)C1CCN(C(=O)c2cc3oc(C)cc3n2Cc2c(F)cccc2Cl)CC1)OC
 : i	0.711	3.9	23.1	2.3	-1.7	20.2
- CCCn1cnc2c(N)c(C)c(C)cc21
 : /	0.671	3.4	83.0*	1.2	-1.7	-0.1
- O=C(NC(=S)NC1CCCCCC1)c1cncc(Br)c1
 : /	0.667	0.0	/	0.8	1.3	-6.9
- COC(=O)CCN(C(=O)c1ccc2c(c1)OCO2)c1ccccn1
 : /	0.734	-2.1	-9.3	-1.0	-3.5	7.3
- CN1c2ccccc2C(C)(C)C12CC(c1ccc(Cl)c(S(=O)(=O)N3CCCC3)c1)=NO2 (stereo unspecified)
 : /	0.707	-4.5	-2.3	1.5	/	/
- O=C(COc1ccccc1)Nc1nccs1
 : i	0.636	28.2*	-2.8	5.3	-1.3	2.1
- O=C([O-])c1ccccc1-[n+]1c(-c2ccccc2)cc(-c2ccccc2)cc1-c1ccccc1
 : i	0.569	3.6	-28.2	6.9	0.6	-5.9
- Cc1occc1-c1nnc(SCC(=O)N(C)CCC#N)n1N
 : /	0.749	-6.2	-25.5	1.2	-1.2	-0.9
- Nn1c(SCCOc2ccc(Cl)cc2)nnc1-c1cccnc1
 : i	0.694	-3.4	-6.0	5.2	3.6	-1.8
- CCN(C(=O)COC(=O)c1ccccc1Oc1ccccc1)c1c(N)n(Cc2ccccc2)c(=O)[nH]c1=O
 : i	0.612	/	/	1.7	0.9	2.0
- O=C(NCCc1cccs1)C1CCC(=O)N(CCc2cccc(F)c2)C1 (stereo unspecified)
 : i	0.692	-1.3	0.2	1.6	1.2	-7.5
- CCOc1ccc(S(=O)(=O)NCc2ccncc2)cc1
 : /	0.698	4.9	-21.9	2.6	-1.7	-1.9
- COc1ccc(C(=O)Nc2ccc(O)c3c(=O)cc(-c4cccc(Cl)c4)oc23)cc1
 : i	0.714	8.9	-9.5	1.0	-4.9	6.4
- O=C(NNC(=O)c1ccccc1[N+](=O)[O-])Nc1ccc(Cl)cc1
 : i	0.608	-2.9	13.1	0.5	-1.4	-3.6
- COc1ccc2c(CC(=O)NC3CCCc4ccccc43)coc2c1 (stereo unspecified)
 : /	0.677	0.5	-15.0	-0.1	5.6	-3.0
- Cc1ccc(OCCC(=O)NNC(=O)c2nn(C)c(=O)c3ccccc23)cc1
 : i	0.674	3.0	-8.0	0.6	-4.3	-9.0
- O=C1SC(SC(=Nc2ccccc2)Nc2ccccc2)C(=O)N1c1ccccc1 (stereo unspecified)
 : i	0.702&0.706	1.7	8.8	4.2&5.5	4.5&1.5	-1.7&2.2
- COc1cc(C(=O)NCCNC(=O)c2ccco2)cc(OC)c1OC
 : i	/	/	/	/	11.8	15.2
- COC(=O)c1ccc(N(CC(=O)NC2CCCCC2)C(=O)CNC(=O)c2ccco2)cc1
 : i	0.702	-2.1	2.7	1.7	1.7	6.8
- CC(=O)Oc1ccc(-c2csc(Nc3cccnc3)n2)cc1
 : /	0.727	0.1	/	6.9	-0.8	3.4
- COC(=O)[C@@]12CCCCN1[C@H](c1ccc(-c3cccc(Cl)c3)cc1)[C@H]1C(=O)N(C)C(=O)[C@H]12
 : i	/	-1.3	3.2	0.3	6.6	4.9
- Cc1ccc(NC(=O)CS(=O)(=O)c2c[nH]c3ccccc23)c(C)c1
 : /	0.67	-0.7	8.8	0.2	-0.8	1.1
- O=S(=O)(c1cccc(F)c1)N1CCN(C(=S)NCc2ccccc2)CC1
 : /	0.688	0.9	/	0.4	-2.3	-3.7
- Cc1ccc(S(=O)(=O)CCC(=O)Nc2cccc(C)c2)cc1
 : /	/	0.1	-21.0	0.4	1.7	-5.4
- O=C(/C=C/c1cccc(Br)c1)Nc1nn[nH]n1
 : i	0.683	0.0	1.9	5.1	/	/
- CCN(C(=O)COC(=O)c1cc(NS(=O)(=O)c2ccc(Cl)c([N+](=O)[O-])c2)ccc1O)C1CCCCC1
 : /	0.741	0.6	1.5	5.2	-4.7	4.0
- Cc1nnc(SCC(=O)Nc2nsc(-c3ccccc3)n2)s1
 : /	0.656	-0.4	-0.7	3.5	-1.8	-2.6
- CCOCCCNS(=O)(=O)c1cc2[nH]c3c(c2cc1C)C(=O)CC(C)(C)C3
 : i	0.622	-0.3	-3.5	3.3	-0.6	0.1
- COc1ccc2c(-c3ccc(S(N)(=O)=O)cc3)c(-c3ccc(S(C)(=O)=O)cc3)sc2c1
 : i	0.708	/	/	i	-0.7	12.6
- Cc1ccc(C)c(NC(=O)CN(C)C(=O)C2CCN(S(=O)(=O)c3ccc4c(c3)OCCO4)CC2)c1
 : i	0.676	8.7	-0.9	1.7	-1.6	-6.6
- CCn1cnc2c1c(=O)n(Cc1nnc3n1-c1ccccc1SC3)c(=O)n2Cc1ccccc1
 : /	0.742	-2.8	-27.9	0.0	-1.3	1.0
- CCN1CCc2c(OCC(=O)N3CCCCC3)cccc2C1=O
 : i	0.721	1.9	-8.4	3.7	0.1	-9.4
- COc1ccc(C2CC(c3cccs3)=NN2C(=O)CSc2nc(=O)n3cc(C)ccc3n2)cc1 (stereo unspecified)
 : i	0.703	-0.3	-1.1	-2.0	1.5	11.4
- O=C(Cc1ccsc1)NNC(=O)c1ccccc1Cl
 : i	0.63	5.5	-18.6	1.9	5.1	-4.9
- O=C1CN(C(=O)COC(=O)c2ccc(N3CCCCCC3)c([N+](=O)[O-])c2)c2ccccc2N1
 : i	0.741	0.6	-6.9	2.0	-3.4	-10.3
- O=C1CCc2cc(S(=O)(=O)NCc3ccc(F)cc3)cc3c2N1CCC3
 : i	0.615	-3.7	-2.9	1.7	-8.9	-3.6
- COc1cccc(NC(=S)N2CCN(C)CC2)c1
 : i	0.675	-1.1	/	-0.5	1.3	-7.2
- CC(=O)Oc1c(Cl)c(N2CCOCC2)c(OC(C)=O)c2ccccc12
 : /	0.682	-0.4	-3.8	2.7	6.6	6.0
- CCc1nnc(NC(=O)CCC(=O)N2CCCC(O)C2)s1 (stereo unspecified)
 : i	0.712	-1.6	-3.1	6.1	-0.1	3.9
- O=C(C1CCN(S(=O)(=O)c2cccc3nsnc23)CC1)N1CCCc2ccccc21
 : /	0.742	3.7	-19.1	4.5	0.6	4.7
- COc1ccc(CNC(=O)Cn2cc(C(F)(F)F)ccc2=O)cc1OC
 : i	0.686	-1.7	-3.7	5.7	-0.6	-2.5
- CNc1csc(C)c(C)c1=O
 : /	0.693	-6.2	55.0	1.0	-0.4	-1.2
- CCOC(=O)CNC(=O)c1cnn2cccnc12
 : /	0.75	1.1	-7.5	-22.1	-6.7	14.3

# Printed as active in LANA-H2B inh, of those listed so far:
compound	FGF22 binding	LANA-H2B inh	ALR H2O2 inh	UCH37 inh	HNF4A DNA FP	B2AR ag
O=C(COc1ccccc1)Nc1nccs1	i	28.2*	-2.8	5.3	-1.3	2.1

# Next part.
# The line under a structure holds: FGF22 binding	E coli growth	LANA-H2B inh	ALR H2O2 inh	UCH37 inh	HNF4A DNA FP	B2AR ag
- O=C(COC(=O)Cc1ccccc1F)Nc1ccc2c(c1)OCCO2
 : i	0.674	-2.8	12.2	-0.6	0.6	-1.2
- COc1cc(OC)c(OC)cc1CNC(=O)c1ccc(COc2ccccc2)cc1
 : i	0.667	-0.6	-2.0	2.0	1.9	0.3
- CC(C)(C)C(=O)Nc1ccc(C(=O)Nc2cccnc2)cc1
 : /	0.708	0.1	4.6	2.4	-3.6	-5.3
- O=c1sc(/C=N/Nc2ccccc2)c(Cl)n1Cc1ccccc1
 : i	/	4.5	-1.6	/	0.1	9.9
- Cc1sc2nc(CN3CCOCC3)nc(N3CCC(C(N)=O)CC3)c2c1C
 : /	0.649	-5.5	/	-2.0	4.8	/
- CCOC(=O)c1c(NC(=O)CSc2nnc(C)o2)sc(C)c1C
 : i	0.681	2.2	53.4	4.1	1.2	-4.9
- O=C(O)[C@@H]1CCCN(S(=O)(=O)c2cccc3cccnc23)C1
 : i	/	-2.6	-1.9	2.0	-1.2	6.4
- COc1ccc(NC(=O)CN2CCCCCC2)cc1OC
 : i	0.688	-1.0	-76.5	3.3	-1.6	9.3
- OCCN1CCN(c2nc(-c3ccccc3O)nc3ccccc23)CC1
 : i	0.664	-2.8	-4.4	7.7	-8.2	5.6
- CCSc1nnc(NC(=O)CSc2nc(C)cc(C)n2)s1
 : /	0.715	3.6	/	-1.6	-0.8	-10.2
- CC(C)CN1CCC(CN(C)Cc2nc(-c3cnccn3)no2)CC1
 : i	0.691	-1.9	-4.1	-1.2	0.2	10.0
- O=C(CC1OC(=O)c2ccccc21)Nc1ccccc1N1CCOCC1 (stereo unspecified)
 : /	0.714	-4.4	-7.2	1.8	-0.6	3.3
- COc1ccc(NS(=O)(=O)c2cc3c(cc2C)N(C(C)=O)CCO3)c(OC)c1
 : i	0.682	2.5	-0.3	1.2	8.2	2.4
- Cc1cc(=O)oc2c3c(cc(OCC(=O)Nc4cccnc4)c12)OC(C)(C)CC3
 : i	0.713	4.2	/	-110.9	2.4	10.3
- Cn1c(SCC(=O)N2CCOCC2)nc(O)cc1=O
 : /	0.723	0.8	47.6	2.2	1.0	-1.5
- O=C1CC(c2ccccc2)=C(c2ccccc2)C1c1ccccc1 (stereo unspecified)
 : i	0.679	/	/	0.5	4.2	4.7
- O=C(Nc1ccc(Cl)c(S(=O)(=O)N2CCCC2)c1)c1nn(CCO)c(=O)c2ccccc12
 : i	0.707	/	/	1.4	1.8	23.4
- CN(C)C(=O)CSc1ccccc1C(=O)OCC(=O)NC1CC1
 : i	0.709	-0.3	-4.7	-1.9	0.0	-9.1
- CCOC1=CC(=O)N(Cc2ccccc2)C1
 : i	0.64	-1.9	2.0	4.4	2.0	-2.0
- O=C(O)C1C2CCC(O2)C1C(=O)Nc1ccc(OC(F)F)cc1 (stereo unspecified)
 : i	/	-8.2	-10.3	/	1.9	-5.8
- CS(=O)Cc1cc(Sc2ccccc2)nc(-c2ccncc2)n1 (stereo unspecified)
 : i	0.724	-3.3	-4.0	3.5	-0.4	2.6
- COc1cccc(/C=C/C(=O)Nc2ccc3c(c2)OCCO3)c1
 : i	0.619	-0.9	-2.5	1.4	1.3	-2.9
- O=C(c1ccc(F)cc1)N(C(=O)c1ccc(F)cc1)c1ncccn1
 : i	0.728	0.8	-4.3	4.1	2.6	-5.5
- CC1=C(C(N)=O)C(c2ccc(Cl)cc2Cl)n2ncnc2N1 (stereo unspecified)
 : /	0.719	-3.4	-14.2	5.4	-1.7	/
- CN1CCN(Cc2cn[nH]c2-c2ccc(F)cc2F)[C@@H](c2ccccc2)C1
 : /	/	1.7	-5.9	/	5.8	5.3
- CCCOc1ccc(N2C(=O)CC(N3CCN(S(=O)(=O)c4ccccc4)CC3)C2=O)cc1 (stereo unspecified)
 : /	0.714	-2.0	-6.7	4.2	2.8	-0.8
- Cn1cccc1C(=O)OCC(=O)N1c2ccccc2NC(=O)C1(C)C
 : /	0.667	-2.5	-1.3	2.3	3.6	-19.1
- Cc1cccc(NC(=O)COc2cccc3c2CCN(Cc2ccccc2)C3=O)c1C
 : i	0.72	0.8	3.1	5.0	1.7	-71.5
- Cc1cccc(C(=O)NCC(c2ccco2)N(C)C)c1 (stereo unspecified)
 : /	0.682	-2.8	/	2.8	1.0	1.6
